Screening data deposited in PubChem BioAssay by National Center for Advancing Translational Sciences (NCATS).
TsaE inh = qHTS Assay for Inhibitors of YjeE. purified YjeE, fluorescence polarisation of a bound ADP probe. Potency, µM. hit rate 0.05% among 71,000. AID 605, 2007; active = well fitted falling curve; inconclusive = weaker or top-dose-only fall, or a rising curve; inactive = flat or poorly fitted curve;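 further: top concentration of the series not given in the record; excess ADP was the control for the full effect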
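Purified YjeE (10 uM) with BODIPY Texas Red-labeled ADP probe (2 uM); compounds pin-transferred, 15 min at room temperature. Binding inhibition read as decreased fluorescence polarization; ADP titration as control.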
PK Bst = Pyruvate Kinase; Potency, µM; AID 361, 2006; partly purified Bacillus stearothermophilus pyruvate kinase, luminescence ATP production; ribose 5-phosphate activator present at AC10; hit rate 1.2% among 51,000; in the data active means potency below about 11 µM; inconclusive means mostly about 12 µM to 25 µM; inactive means weaker than that;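 the screen sought inhibitors and activators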;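 further: potency means the concentration at half of the fitted maximal effect; scaled between full activation by ribose 5 phosphate and full inhibition by luteolin; about four in five hits inhibit and the cells do not say which; series up to 57 µM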
Numbers without * were called inactive; i = inactive; ? = inconclusive; / = not tested or not shown.

Values run as follows: TsaE inh, PK Bst
1. Cc1noc(/C=C/N(C)C)c1S(=O)(=O)N1CCCC(C(=O)NCc2ccccc2Cl)C1 (stereo not drawn)
→ i, >57
2. O=C(O)CCCC(=O)N1CCc2cc(S(=O)(=O)N3CCc4ccccc43)ccc21
→ i, /
3. Fc1ccc(-c2cc3nc4c(c(N5CCOCC5)n3n2)CCCC4)cc1
→ i, i
4. COC(=O)CSc1nnc(CNC(=O)Cc2ccccc2)n1C
→ i, >57
5. COC(=O)c1[nH]c2cccc(Cl)c2c1NC(=O)CN1CCCCC1C (stereo not drawn)
→ i, >57
6. Cc1ccc(S(=O)(=O)N2CCCCC2)cc1C(=O)Nc1ccc2cn[nH]c2c1
→ i, >57
7. COc1ccccc1NC(=O)CSc1nnc(C)n1CCc1ccccc1
→ i, >57
8. Cc1ccc2c(c1)nnn2C1CCN(C(=O)NC23CC4CC(CC(C4)C2)C3)CC1
→ i, >57
9. O=C(Nc1ccccc1F)N(CCCN1CCOCC1)Cc1cc2cc3c(cc2[nH]c1=O)OCCO3
→ i, >57
10. CC1CCc2c(sc(NC(=O)c3noc4c3CCCC4)c2C(N)=O)C1 (stereo not drawn)
→ i, >57
11. CCOC(=O)N1CCC(NC(=O)Cn2ncc3ccccc32)CC1
→ i, >57
12. COC(=O)CSc1nc(N)c2c3c(sc2n1)CCCC3
→ /, ?
13. O=c1c(-c2ccccc2)[n+]([O-])c2ccccc2n1O
→ i, >57
14. Cc1cc(=O)n2[nH]cnc2n1
→ /, >11
15. OC(CN(c1ccccc1)c1ccccc1)Cn1cnc2ccccc21 (stereo not drawn)
→ i, /
16. COc1cc(OC)cc(-n2nnnc2SCC(=O)N2CCCc3ccccc32)c1
→ i, >57
17. O=C(Nc1cccc(O)c1)c1cc(S(=O)(=O)N2CCCC2)ccc1Cl
→ i, >57
18. O=C(Cc1cccs1)NCc1cn2ccccc2n1
→ i, /
19. CC(=O)c1cc(CN2C(=O)CCC2=O)cs1
→ i, /
20. O=C(C1CC1)N1CCN=C1SCc1ccccc1
→ i, /
21. c1ccc(-c2cc(-c3nn4c(-c5ccco5)nnc4s3)c3ccccc3n2)cc1
→ i, >57
22. CN(C)c1ccnc2sc(C(=O)NCc3ccccc3)c(N)c12
→ i, /
23. COc1ccc(C2N(c3ccc(Cl)cc3)C(=O)C3CCCN32)cc1 (stereo not drawn)
→ i, /
24. CCn1c2ccccc2c2cc(NC(=O)CSc3nnnn3-c3ccccc3)ccc21
→ i, >57
25. Cn1c(=O)[nH]c(=O)c2c1nc(N1CCCCCC1)n2CCN1CCCCCC1
→ i, >57
26. C=CCn1c(C(C)NC(=O)C(C)(C)C)nc2ccccc21 (stereo not drawn)
→ i, >57
27. CCOc1ccc(-n2c(Cc3ccccc3)nnc2SCc2c(C)noc2C)cc1
→ i, /
28. CCc1ccc2oc(=O)cc(CN3CCN(c4ccc(F)cc4)CC3)c2c1
→ i, >57
29. CCOc1ccccc1CNS(=O)(=O)c1ccc2[nH]c(=O)sc2c1
→ i, >57
30. CCC(C)NC(=O)CC1Oc2ccc(C)cc2NC1=O (stereo not drawn)
→ i, /
31. O=C(COc1ccc2oc(-c3ccccc3)cc(=O)c2c1)NCc1ccco1
→ i, 4.1*
32. C=CCn1c(=O)/c(=C\c2ccsc2)s/c1=C(/C#N)C(=O)NCCN1CCOCC1
→ i, >57
33. O=C(NC1CCCc2ccccc21)C1CCN(c2c(N3CCCC3)c(=O)c2=O)CC1 (stereo not drawn)
→ i, /
34. COc1cc(NC(=O)C(F)(F)F)cc(OC)c1
→ i, /
35. COc1cccc(NC(=O)CN2C(=O)C3(OCCCO3)c3ccccc32)c1
→ i, >57
36. CCS(=O)(=O)NCc1csc(C)n1
→ i, >57
37. COC(=O)CSc1nnnn1-c1cccc2ccccc12
→ i, ?
38. O=C(Nc1ccc(-c2nnc(-c3ccccc3)o2)cc1)C1CCCO1 (stereo not drawn)
→ i, /
39. Cc1cc(=O)n(CCC(=O)O)c2ccccc12
→ /, >26
40. O=C1Nc2ccccc2OC1CC(=O)N1CCN(c2cccc(C(F)(F)F)c2)CC1 (stereo not drawn)
→ i, >57
41. COc1cccc2c1OC1(C)CC2/C(=C(\C)O)C(=O)N1 (stereo not drawn)
→ i, >57
42. CC(C)(C)n1ncc2c(=O)n(CC(=O)c3ccccc3)cnc21
→ i, >57
43. CC/C(=C(\c1ccccc1)c1ccc(OCCN(C)C)cc1)c1ccccc1
→ i, /
44. COc1ccc(C)cc1NC(=O)CSc1nnc(COc2ccc(C)cc2)n1Cc1ccco1
→ i, >57
45. COc1ccc(-n2c(SCC(=O)N3CCCC3)nc3c([nH]c4ccccc43)c2=O)cc1
→ i, /
46. CCOC(=O)C1(C(F)(F)F)N=C(c2cccnc2)OC(N2CCOCC2)=N1 (stereo not drawn)
→ i, >57
47. O=S(=O)(c1ccc(F)cc1)N1CCN(c2ncnc3c2cnn3-c2ccccc2)CC1
→ i, >57
48. N#Cc1c(C(F)(F)F)cc(C2CC2)[nH]c1=O
→ i, /
49. O=C(OCN1C(=O)c2ccccc2C1=O)c1cccs1
→ i, /
50. COC(=O)[C@H](CCSC)NC(=O)NCc1ccccn1
→ i, >57

Remaining list, next part
Values run as follows: TsaE inh, PK Bst
51. CC(C)OCCCNC(=O)c1cccs1
→ i, >57
52. CCOc1ccc(C(=O)Nc2cc(C)on2)cc1OCC
→ i, i
53. COc1ccccc1C1/C(=C(/O)c2cnn(-c3ccccc3)c2C)C(=O)C(=O)N1CCN(C)C (stereo not drawn)
→ /, >26
54. CC(=O)c1cccc(NC(=O)N2CCCC2C(=O)NCc2ccc(F)cc2)c1 (stereo not drawn)
→ i, >57
55. Cn1cccc1C1(C(F)(F)F)NCCNC1=O (stereo not drawn)
→ i, >57
56. O=C(O)c1ccccc1NCc1ccncc1
→ i, >57
57. CCc1nnc(NC(=O)CSc2nnc(-c3ccco3)n2C)s1
→ i, >57
58. CC1CCN(c2nc(-c3ccco3)c3c(c2C#N)CC(C)(C)OC3)CC1
→ i, /
59. CC(C)n1ncc(C(N)=O)c1N
→ i, >57
60. COCC(=O)NC1CCN(C(=O)Nc2ccc(Br)cc2)CC1
→ i, >57
61. O=C(C1CC(c2ccc(F)cc2)=NO1)N1CCc2ccccc2C1 (stereo not drawn)
→ i, /
62. Cc1nc2ccc(S(=O)(=O)NCC(=O)NCCN3CCCCC3C)cc2s1 (stereo not drawn)
→ i, >57
63. CCOC(=O)N1CCN(C(c2ccc(C(C)C)cc2)c2sc3nc(C)nn3c2O)CC1 (stereo not drawn)
→ i, /
64. CCOc1ccccc1-n1c(SCC(N)=O)nnc1-c1cccnc1
→ i, >57
65. O=C(O)c1ccc(NC(=O)C2CCCCC2)cc1
→ i, >57
66. CC(=O)c1cc2c(cc1NC(=O)CN1CCN(c3ccc(F)cc3)CC1)OCO2
→ i, >57
67. Fc1ccc(Nc2nc(-c3ccoc3)nc3ccccc23)cc1
→ i, /
68. CCOc1ccc(C(=O)Nc2ccncc2)cc1
→ i, /
69. Cc1ccc(-n2nnnc2SCc2nnc(-c3ccccc3Br)o2)c(C)c1
→ i, >57
70. CC(=O)NCCC(Cc1ccccc1)c1ccco1 (stereo not drawn)
→ i, >57
71. O=C(N/N=C\c1ccc([N+](=O)[O-])o1)c1ccc(O)cc1
→ i, /
72. COc1cc(C(=O)NCc2ccc(-c3nc4ccccc4o3)cc2)cc(OC)c1OC
→ i, >57
73. Cc1[nH]c2ccc(Br)cc2c(=O)c1CN1CCCCC1
→ i, >57
74. O=c1[nH]c(=O)n([C@H]2C[C@H](O)[C@@H](CO)O2)cc1F
→ /, >26
75. CCn1cc(Br)c(C(=O)N(C)Cc2ccccc2)n1
→ i, >57
76. CCOC(=O)c1c(C(C#N)C#N)cc(C)nc1C
→ /, >26
77. COC(=O)c1cnn2c(C(F)(F)F)cc(-c3ccco3)nc12
→ i, >57
78. CC1(C)S[C@@H]2[C@H](NC(=O)[C@@H](N)c3ccccc3)C(=O)N2[C@H]1C(=O)O[C@H]1OC(=O)c2ccccc21
→ i, /
79. CCCCSc1nc(C)c(CC(=O)O)c(=O)[nH]1
→ i, >57
80. CC1(C)N([O-])C(c2cccs2)=C[N+]1=O
→ i, >57
81. CC(C)(C)NC[C@@H](O)COc1ccccc1C1CCCC1
→ i, /
82. c1ccc(-c2nc(N3CCN(c4ccccc4)CC3)nc(-n3ccnc3)n2)cc1
→ i, >57
83. Cc1nc2cnc(N(C)C)nc2n(C2CC2)c1=O
→ i, /
84. O=C(CN1C(=O)COc2ccccc21)NCCC1=CCCCC1
→ i, >57
85. CCOC(=O)c1cnc2c(cnn2CC)c1NN=C(C)C
→ i, /
86. CNc1cc(-c2c(C)noc2C)ncn1
→ i, /
87. COc1ccc(-c2nc3cnc(OC)nc3n(-c3ccccc3)c2=O)cc1
→ i, /
88. CCCOc1cccc(C(=O)O)c1
→ i, >57
89. Cn1c(=N)c(S(=O)(=O)c2ccccc2)cc2c(=O)n3ccccc3nc21
→ i, >57
90. COc1ccc(C2C3=C(CC(C)(C)CC3=O)Nc3c2c(=O)[nH]c2nc(C)nn32)cc1 (stereo not drawn)
→ i, >57
91. COc1ccccc1N1CCN(CCCCNS(=O)(=O)c2cccc3c(N(C)C)cccc23)CC1
→ i, /
92. CC12CCC(C(=O)N3CCN(C(=O)C45CCC(C)(C(=O)O4)C5(C)C)CC3)(OC1=O)C2(C)C
→ i, /
93. CCCCCCCCCCCCCCC/C=C\[C@H](O)[C@@H](NC(=O)CCCCCCCCCCCCC)OC (tested in a mixture with another compound)
→ i, /
94. COCCn1c(=O)c(-c2ccccc2)nc2cnc(OCc3ccccc3)nc21
→ i, /
95. COc1ccc(-c2nnc(SCC(=O)NC(C)C)n2CC2CCCO2)cc1OC (stereo not drawn)
→ i, >57
96. O=S(=O)(N1CCOCC1)n1c(Cc2ccccc2)nc2ccccc21
→ i, >57
97. CC(C)(N)CO[C@H]1C[C@H]2CC[C@@]1(C)C2(C)C
→ i, /
98. CCC(C)(C)n1nnnc1C(c1ccc2ncccc2c1)N1CCN(Cc2ccc3c(c2)OCO3)CC1 (stereo not drawn)
→ i, >57
99. CCOc1ccc(NC(=O)CSC2=C(C#N)C(c3ccc4c(c3)OCO4)CC(=O)N2)cc1 (stereo not drawn)
→ /, >26
100. O=C(CN(Cc1ccccc1Cl)C(=O)Cn1nnc(-c2cccs2)n1)NCC1CCCO1 (stereo not drawn)
→ i, /

Later entries.
Values run as follows: TsaE inh, PK Bst
101. Cc1cc(=O)oc2ccc(OCC(=O)N3CCC(C)CC3)cc12
→ i, >57
102. COc1cc(C2NC(=O)NC(O)(C(F)(F)F)C2C(=O)c2ccc(Cl)cc2)ccc1O (stereo not drawn)
→ i, >57
103. Cc1nnc(SCc2cn3ccsc3n2)n(N)c1=O
→ i, >57
104. O=C(NCc1ccco1)c1cc(-c2ccco2)on1
→ i, >57
105. C/C=C1\C(=O)C[C@H]2[C@@H]3CCC4=CC(=O)CC[C@]4(C)[C@H]3CC[C@]12C
→ i, /
106. Cc1cccc(NC(=O)CC2CCC2)c1
→ i, >57
107. CC(C)C(c1nnnn1C1CCCC1)N(C)C1CCCCC1 (stereo not drawn)
→ i, >57
108. C/C(=C\c1ccc(C(=O)O)cc1)c1ccc2c(c1)C(C)(C)CCC2(C)C
→ i, /
109. COc1ccc(NC(=O)N2CCCc3ccccc32)cc1
→ i, /
110. Cc1cccc(Nc2nc(N)nc(CN3CCC(C)CC3)n2)c1C
→ i, >57
111. CCNc1nc(NCC)n2c(SCc3nc4ccccc4c(=O)[nH]3)nnc2n1
→ i, 7*
112. Cc1c(C(=O)Nc2ccccc2Cl)oc2ccc(S(=O)(=O)N3CCC4(CC3)OCCO4)cc12
→ i, >57
113. Clc1cccc(-c2nnc(SCc3nc4ccccc4[nH]3)n2Cc2ccco2)c1
→ i, >57
114. COC(=O)C1(C(O)C(=O)c2ccc(C)cc2C)CCCCC1 (stereo not drawn)
→ i, >57
115. Cc1cccc(-c2noc(CN(C(C)C)S(=O)(=O)c3ccc(F)cc3)n2)c1
→ i, >57
116. COc1ccc(C(=O)N2CCC3(CCCN(Cc4ccccc4)C3)CC2)cc1
→ i, /
117. COc1cccc(C2CC(=O)N3CN(c4ccccc4F)CSC3=C2C#N)c1 (stereo not drawn)
→ i, /
118. O=C(Nc1ccc(Oc2ccc(S(=O)(=O)N3CCOCC3)cn2)cc1)c1ccco1
→ i, >57
119. OCCSc1ncnc2c1oc1ccccc12
→ i, i
120. Cc1nc(NCc2ccccc2)c(C(N)=O)c2c1COC(C)(C)C2
→ /, >26
121. CCc1ccccc1NC(=O)C(Cc1cccc(OC)c1OC)c1nn[nH]n1 (stereo not drawn)
→ i, >57
122. CCOC(=O)Cc1csc(NC(=O)CSc2nnc(C(C)C)n2C)n1
→ i, >57
123. CCCN1C(=O)C2(C(C(=O)c3ccc(C)o3)=C(O)C(=O)N2CCCN2CCOCC2)c2ccccc21 (stereo not drawn)
→ i, >57
124. COc1cc(Nc2nc(SCC#N)nc3ccccc23)cc(OC)c1OC
→ i, >57
125. CC1CCN(c2ccc(C(=O)O)cc2N)CC1
→ i, >57

Some of the compounds tested; count on the stated rates, not on these rows.
